Assay outcomes: PubChem BioAssay, several laboratories
CBX7 AlphaScr = blocks human CBX7 binding to H3K27me3 peptide. normalised signal (fraction of DMSO) (concentration not given with the values). O95931. hit rate 1.1% among 66,000. AlphaScreen His6-CBX7 / biotin-H3K27me3 peptide binding; active compounds read low. AID 1224903; in the data active means normalised signal below about 0.5;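 further: 100 nL library stock added to about 20 µL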
Target sequence (O95931 whole entry, looked up): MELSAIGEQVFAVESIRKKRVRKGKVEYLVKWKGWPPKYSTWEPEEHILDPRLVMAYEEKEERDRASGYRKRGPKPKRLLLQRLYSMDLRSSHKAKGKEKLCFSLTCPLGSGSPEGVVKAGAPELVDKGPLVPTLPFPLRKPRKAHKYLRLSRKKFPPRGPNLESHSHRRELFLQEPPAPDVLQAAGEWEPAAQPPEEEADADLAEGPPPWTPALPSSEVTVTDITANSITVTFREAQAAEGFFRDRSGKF
CBX7 AlphaScr z-score = further read-out of CBX7 AlphaScr, marked with its call; z-score; measured here: z-score of CBX7 signal; some inactives read as strong as hits; reference of the scale not given here;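 same signal on another scale; lower means less binding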
The depositor's hits bear a star. Not all compounds are listed; count on the stated rates, not on these rows.

Structure | CBX7 AlphaScr | CBX7 AlphaScr z-score
Cc1onc(-c2ccccc2)c1C(=O)NCCCn1ccnc1 | 0.945 | -0.0655
O=C(CCN1C(=O)COc2ccccc21)NCCCN1CCOCC1 | 0.974 | -0.37
COCCCNC(=O)CCN1N=C(c2ccccc2)CCC1=O | 1.06 | 1.1
CCOC(=O)c1ccc(NC2c3ccccc3C(=O)N2c2cccnc2)cc1 (stereo not drawn) | 1.01 | 0.416
O=C(Nc1ccccc1F)C(Cc1ccccc1)NS(=O)(=O)c1cccs1 (stereo not drawn) | 0.986 | -0.446
O=C(CCc1ccccc1)Nc1nnc(Cc2ccc(Cl)cc2Cl)s1 | 1.02 | 0.399
Cc1ccc(CN2C(=O)CCC2(C)C(=O)NC2CCCC2)cc1 (stereo not drawn) | 1.06 | 1.09
Cc1ccc(-n2nc3c(c2NC(=O)c2cccc(F)c2)CS(=O)(=O)C3)cc1 | 1.2 | 1.29
CCCCN(CC)S(=O)(=O)c1ccc(C(=O)Nc2ccccc2-c2nc3ccccc3[nH]2)cc1 | 0.941 | -1.37
CCn1c(=O)cc(OCC(=O)Nc2ccc(OC)c(OC)c2)c2ccccc21 | 0.872 | -2.1
COc1ccc(-n2nc(C(=O)NCC(=O)Nc3ccc(OC)cc3OC)c3ccccc3c2=O)cc1 | 1.03 | 0.672
CCCc1cc(C(=O)Nc2c(C)nn(Cc3ccccc3)c2C)no1 | 0.988 | -0.0162
COc1ccc(C2(C(=O)NC3CCCCC3)CCCC2)cc1OC | 1.09 | 2.49
CCC1CCCCN1S(=O)(=O)c1ccc2[nH]c(=O)cc(C(=O)NCCC3=CCCCC3)c2c1 (stereo not drawn) | 0.865 | -1.47
COc1ccc(-c2nn(C)c3sc(C(=O)N(C)C4CCCCC4)cc23)cc1OC | 0.99 | -0.287
CCN1CC(=O)Nc2c(sc3nc(C)cc(C)c23)C1=O | 1.09 | 0.127
O=c1[nH]c2ccc(S(=O)(=O)NCc3ccc4c(c3)OCO4)cc2[nH]c1=O | 1.06 | 2.58
CC(=O)c1c(C)nc2ccc(Cl)cc2c1-c1ccccc1 | 0.937 | -0.68
CCCN(C(=O)Cn1nc(Cc2ccncc2)c2ccccc2c1=O)c1cccc(Cl)c1 | 0.962 | -1.43
Cc1noc(C(=O)NCCCn2ccnc2)c1Cl | 0.996 | -0.128
O=C(c1cc2c(s1)-c1ccccc1OC2)N1CCc2ccccc21 | 1 | 0.0654
Cc1c(C(=O)Nc2ccc(F)c(Cl)c2)oc2ccc(S(=O)(=O)N3CC(C)CC(C)C3)cc12 (stereo not drawn) | 1.03 | 0.29
CCCOc1ccc(C2C(=O)N(C3CCCCC3)CC(=O)N2Cc2ccccc2OC)cc1OC (stereo not drawn) | 0.865 | -0.135
O=C(Nc1ccc(-c2csc(Nc3cccc(Cl)c3)n2)cc1)c1ccccc1 | 0.781 | -0.38
O=C(CSc1nnc(CNC(=O)c2c(F)cccc2Cl)o1)Nc1ccc(F)cc1F | 1.06 | 0.99
Cc1ccc(NC(=O)c2cc(N3CCOCC3)nc3ccccc23)cc1 | 1.19 | 5.61
CCOc1ccccc1CNC(=O)CN1C(=O)COc2ccc(C(C)(C)C)cc21 | 1.03 | 0.435
CCn1ccnc1C(O)c1cccc(OC)c1 (stereo not drawn) | 0.763 | -0.935
CCCCC(CC)c1nnc(NC(=O)c2ccc(Cl)cc2Cl)s1 (stereo not drawn) | 0.984 | -0.346
O=c1nc(/C=C/c2cccc(Oc3ccccc3)c2)cc(C(F)(F)F)[nH]1 | 0.752 | -3.47
Cc1ccc(NC(=O)c2ccccc2-c2nc3ccccc3[nH]2)cc1 | 1.01 | 0.083
Cc1ccc(-n2cc(C(=O)Nc3ccc4c(c3)OCO4)c3ccccc3c2=O)cc1C | 0.916 | -1.82
O=C(CSc1nnc2c(n1)[nH]c1ccccc12)N(c1ccccc1)c1ccccc1 | 0.875 | -1.73
Cc1sc2ncn(CC(=O)NCCCC(=O)NCCCN3CCOCC3)c(=O)c2c1C | 1.01 | 0.117
O=C(CN1C(=O)COc2ccccc21)NCCCN1CCCC1=O | 1.05 | 1.63
O=C(Nc1cccnc1)c1cnn(-c2ccccc2)c1C1CCNCC1 | 0.992 | -0.298
CCCNC(=O)CCc1c(C)nc2c(-c3ccccc3)c(C)nn2c1C | 1.18 | 2.03
O=C(NCCc1ccccc1)c1cccc(NC2=NC3CS(=O)(=O)CC3S2)c1 (stereo not drawn) | 1.09 | 3.46
CCCSCCCNC(=O)CN1C(=O)CC(C)(C)Sc2ccccc21 | 1.04 | 0.547
COc1ccc(CCN2CC34C=CC(O3)C(C(=O)NCc3ccccc3)C4C2=O)cc1OC (stereo not drawn) | 1.15 | 2.28
O=C1CC(N2CCN(c3ccc(F)cc3)CC2)C(=O)N1c1cccc2ccccc12 (stereo not drawn) | 0.904 | -1.55
CCN(CC)CCNC(=O)CCn1nc(-c2ccccc2)ccc1=O | 1.07 | 2.02
CC(C)CCNC(=O)c1ccc2nc(N3CCOCC3)sc2c1 | 1.04 | 1.41
O=C(CSc1nc2ccccc2[nH]1)Nc1ccc(Oc2ccccc2)cc1 | 0.838 | -4.03
Cc1cc2nn(-c3ccccc3)nc2cc1NC(=O)C(C)C | 1.04 | 1.93
Cc1cc2ccccc2n1CCNC(=O)c1ccc(S(=O)(=O)N2CCCC2)cc1 | 0.988 | -0.237
CCOc1ccccc1NC(=O)c1ccc(CNc2c(N3CCC(C)CC3)c(=O)c2=O)cc1 | 1 | 0.192
CCCc1c(O)nc(SCC(=O)N2CCCCC2)[nH]c1=O | 1.01 | 0.172
O=C(CC(C(=O)N1CCc2ccccc21)n1ccnc1)NCCCN1CCC(Cc2ccccc2)CC1 (stereo not drawn) | 1 | 0.073
CC1CCN(C(=O)CN(c2ccc(Cl)cc2Cl)S(=O)(=O)c2ccccc2)CC1 | 0.91 | -1.24
CCc1nnc(NC(=O)C2CCCN(C(=O)c3cnn(-c4ccccc4)c3-n3cccc3)C2)s1 (stereo not drawn) | 0.969 | -1.53
Cc1ccc(OCCn2ncc3ccccc3c2=O)c(C)c1 | 1.09 | 1.25
COc1ccc(-n2nc(C(=O)Nc3cccc(OC)c3)c3ccccc3c2=O)cc1 | 0.957 | -1.15
O=C(Cn1ncc2ccsc2c1=O)NCc1ccccc1Cl | 1.18 | 2.3
Brc1cccc(-c2nnc(SCc3nc4ccccc4[nH]3)n2-c2ccccc2)c1 | 1.06 | 0.658
Cc1cccc(NC(=O)c2sc3ncn(CC(=O)N4CCCCC4C)c(=O)c3c2C)n1 (stereo not drawn) | 1.04 | 1.12
O=C(Nc1ccc(F)cc1F)C1c2ccccc2C(=O)N2CCc3ccccc3C12 (stereo not drawn) | 0.92 | -1.58
CCC(=C(c1ccc(OC)cc1)c1ccc(OC)cc1)c1cn(CC(O)CN2CCCC2)c2ccccc12 (stereo not drawn) | 0.26* | -4.64*
O=C(CC1(O)C(=O)N(Cc2ccc(Cl)cc2)c2ccccc21)c1cccnc1 (stereo not drawn) | 0.732 | -0.302
CCOc1ccc(-c2nc(CSCC(=O)NC3CCN(Cc4ccccc4)CC3)c(C)o2)cc1 | 1.01 | 0.082

New compounds follow.
Structure | CBX7 AlphaScr | CBX7 AlphaScr z-score
COc1ccccc1-c1cc(C(=O)NCc2cccs2)no1 | 1.05 | 1.99
Cc1[nH]c2ccc(OC(F)(F)F)cc2c1CCNC(=O)Cc1ccc(Cl)cc1 | 0.591 | -0.831
CCN(CC)CCNC(=O)c1ccc2c(c1)N=C(C)c1ccccc1S2 | 1.31 | 3.73
CCC1CCCCN1C(=O)c1cn(CC(C)C)c(=O)c2cc(OC)c(OC)cc12 (stereo not drawn) | 1.04 | 0.936
CCC(C(=O)NCCOC)n1ncc2ccccc21 (stereo not drawn) | 0.961 | -0.727
Cc1cc(N2CCOCC2)nc2ccc(NC(=O)c3ccccc3F)cc12 | 0.984 | -0.421
Cc1noc(/C=C/c2cccs2)c1S(=O)(=O)N1CCCC(C(=O)N2CCCC(C)C2)C1 (stereo not drawn) | 0.959 | -0.733
CCOC(=O)C1CCN(c2c(NC3CCCC(C)C3C)c(=O)c2=O)CC1 (stereo not drawn) | 0.96 | -1.11
Cc1ccc(-n2cc(-c3ccccc3)c3c(NCCN4CCOCC4)ncnc32)cc1 | 0.975 | -0.721
Cc1cccc(NC(=O)c2cccc(NC3=NC4CS(=O)(=O)CC4S3)c2)c1 (stereo not drawn) | 1.01 | 0.508
COc1ccc(-c2nc(-c3ccccc3)c(-c3ccc(F)cc3)[nH]2)cc1OC | 0.385* | -15.3*
CC(=O)Nc1ccc(N2C(=O)CC(NCc3ccccc3F)C2=O)cc1 (stereo not drawn) | 0.774 | -2.46
CCCN1CCN(C(=O)c2cc3c(s2)-c2ccccc2OC3)CC1 | 1.11 | 5.14
CCn1cc(C(=O)N2CCN(c3ccccc3OC)CC2)c(=O)c2ccc(C)nc21 | 0.964 | -0.384
CCOc1ccc(NS(=O)(=O)c2ccc3[nH]cc(C(=O)N(CC(C)C)CC(C)C)c(=O)c3c2)cc1 | 0.628 | -5.11
CCn1c(=N)n(CC(O)COc2ccc(C)cc2)c2ccccc21 (stereo not drawn) | 0.902 | -0.635
O=C1CC2C(=O)NCCN2C(=NC(=O)c2ccccc2)N1 (stereo not drawn) | 1.01 | 0.484
Cc1cc(=O)[nH]c(SCC(=O)Nc2nc(-c3ccc(Br)cc3)cs2)n1 | 1.02 | 0.0897
CC(C)CCNC(=O)CCNS(=O)(=O)c1ccc2c(c1)CCC(=O)N2 | 1.09 | 1.71
COc1ccccc1NC(=O)Cn1cnc2sc(C)c(S(=O)(=O)N3CCC(C)CC3)c2c1=O | 1.24 | 2.46
O=C(Cc1c(C(=O)O)[nH]c2ccccc12)NCc1ccc2c(c1)OCO2 | 1.12 | 0.487
CCc1cccc(NC(=O)C(Cc2ccccc2)NS(=O)(=O)c2cccs2)c1 (stereo not drawn) | 1.03 | 1.01
CCOC(=O)C1CCCN(C(=O)c2cc(Nc3ccc(OC)cc3OC)nc3ccccc23)C1 (stereo not drawn) | 0.762 | -4.47
COc1ccc(-c2[nH]c(-c3ccc(C)cc3)nc2SCC(=O)Nc2nccs2)cc1 | 0.94 | -0.253

Full records from above.
CCCCC(CC)c1nnc(NC(=O)c2ccc(Cl)cc2Cl)s1 (stereo not drawn) reads CBX7 AlphaScr: 0.984; CBX7 AlphaScr z-score: -0.346
COc1ccccc1NC(=O)Cn1cnc2sc(C)c(S(=O)(=O)N3CCC(C)CC3)c2c1=O reads CBX7 AlphaScr: 1.24; CBX7 AlphaScr z-score: 2.46
CCCN1CCN(C(=O)c2cc3c(s2)-c2ccccc2OC3)CC1 reads CBX7 AlphaScr: 1.11; CBX7 AlphaScr z-score: 5.14

New compounds follow.
Structure | CBX7 AlphaScr | CBX7 AlphaScr z-score
COc1ccccc1CNC(=O)c1ccc2c(c1)nc(C)n2-c1ccc(C(C)C)cc1 | 0.892 | -0.701
Cc1ccc(NC(=O)CCn2nc(-c3ccccc3)c3ccccc3c2=O)c(C)c1 | 0.974 | -0.717
COc1cccc(C2CC(=O)Nc3c2ccc(C)c3C)c1OC (stereo not drawn) | 1.02 | 0.668
CCn1cc(C(=O)Nc2ccc(OC)cc2OC)c(=O)c2ccc(C)nc21 | 1.08 | 0.875
CCN1C(=O)c2ccccc2S(=O)(=O)c2ccc(C(=O)NCCCN3CCCC(C)C3)cc21 (stereo not drawn) | 1.01 | 0.137
Cc1nnc2ccc(N3CCN(C(=O)Nc4ccccc4Cl)CC3)nn12 | 0.947 | -0.953
CC(C)(C)c1ccc2c(c1)N(CC(=O)NCCc1ccccc1)C(=O)CO2 | 0.407* | -10.2*
CCn1c(=N)n(CC(O)COc2ccc(Cl)cc2Cl)c2ccccc21 (stereo not drawn) | 0.922 | -0.503
Cc1ccccc1Cc1c(C)nc2c(C(=O)NCc3ccccn3)cnn2c1C | 0.741 | -2.78
Cc1ccccc1Nc1nnc(-c2ccc(C)c(S(=O)(=O)N3CCN(C)CC3)c2)c2ccccc12 | 0.766 | -0.263
COc1cccc(NC(=O)COc2ccc(N3CC(C(=O)NCC(C)C)CC3=O)cc2)c1 (stereo not drawn) | 1.03 | 0.522
COc1ccccc1N1CCN(C(=O)CCCn2c(=O)[nH]c3ccccc3c2=O)CC1 | 0.986 | -0.0398

A second format for four compounds above.
molecule: Cc1ccc(NC(=O)CCn2nc(-c3ccccc3)c3ccccc3c2=O)c(C)c1
  CBX7 AlphaScr: 0.974
  CBX7 AlphaScr z-score: -0.717

molecule: COc1cccc(C2CC(=O)Nc3c2ccc(C)c3C)c1OC (stereo not drawn)
  CBX7 AlphaScr: 1.02
  CBX7 AlphaScr z-score: 0.668

molecule: CCn1cc(C(=O)Nc2ccc(OC)cc2OC)c(=O)c2ccc(C)nc21
  CBX7 AlphaScr: 1.08
  CBX7 AlphaScr z-score: 0.875

molecule: CCN1C(=O)c2ccccc2S(=O)(=O)c2ccc(C(=O)NCCCN3CCCC(C)C3)cc21 (stereo not drawn)
  CBX7 AlphaScr: 1.01
  CBX7 AlphaScr z-score: 0.137

The list goes on:
Structure | CBX7 AlphaScr | CBX7 AlphaScr z-score
O=C(COc1ccccc1)Nc1c(-c2ccc(F)cc2)nc2ccccn12 | 1.13 | 1.29
O=C(NCCCN=C1NS(=O)(=O)c2ccccc21)c1ccc(Cl)c(Cl)c1 | 1.05 | 1.24
CC(C)(C)c1ccc(-c2nc(NCc3cccnc3)c3ccccc3n2)cc1 | 0.868 | -3.29
CNC(=O)c1c[nH]c2ccc(S(=O)(=O)Nc3cccc(Cl)c3C)cc2c1=O | 0.922 | -0.894
CCc1ccc(NC(=O)c2cn(-c3ccc(Cl)cc3)c(=O)c3ccccc23)cc1 | 0.897 | -1.41
COc1ccc(-n2c3c(cc(C(=O)Nc4ccc(Cl)cn4)c2=O)C(=O)CCC3)cc1 | 1.05 | 1.59
COc1ccc(-c2nc3ccc(C)cn3c2Nc2ccccc2C)cc1 | 0.812 | -1.92
O=C(CN1C(=O)CSc2ncccc21)NCC1CCCO1 (stereo not drawn) | 1.02 | 0.771
Cc1c(C(=O)N2CCCCCC2)sc2ncn(CC(=O)N3CCC(C)CC3)c(=O)c12 | 1.2 | 1.94
Cc1nc2c(C(=O)NCCC(C)C)cnn2c(C)c1Cc1ccc(F)cc1 | 1.11 | 0.819
